NPYLR7 agonist: agonists of mosquito NPYLR7 receptor, primary screen, cell-based, Aedes aegypti, calcium fluorescence, mosquito biting behavior. Aedes aegypti neuropeptide Y-like receptor 7 (NPYLR7). HEK293T NPYLR7/Galpha15, GCaMP6s calcium fluorescence. hit rate 0.15% among 270,000. activation, % at 10 µM; in the data active means activation above about 40%;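 further: 0% = vehicle and 100% = reference agonist at the receptor; some compounds past the cut are filed as inactive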
NPYLR7 agonist max-min: further read-out of NPYLR7 agonist, marked with its call; activation, %; measured here: Max-Min RFU normalised activation; some inactives read as strong as hits;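 span of the calcium signal over five minutes; 0% = vehicle and 100% = native peptide agonist; compound fluorescence can raise it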
An asterisk follows results filed as active. Not all compounds are listed. The share of hits here may be higher or lower than overall.

`Cc1ccc(NC(=O)c2ccc(CSc3nc(Cl)cc(N4CCN(c5cccc(Cl)c5)CC4)n3)cc2)cc1C` gave NPYLR7 agonist 19 and NPYLR7 agonist max-min 25.
For COc1ccc(S(=O)(=O)N2CCN(Cc3cc(=O)c(OCc4ccc(C(F)(F)F)cc4)co3)CC2)cc1OC the results were NPYLR7 agonist 21 and NPYLR7 agonist max-min 6.
Cc1nc2nc(=S)[nH]n2c(C)c1CC(=O)O was read as NPYLR7 agonist 6 and NPYLR7 agonist max-min 10.
`CC(SCc1cccc(S(=O)(=O)N(C)C)c1)C(=O)N(C)c1ccccc1` (configuration not stated) gave NPYLR7 agonist 2 and NPYLR7 agonist max-min -1.
Screening Cc1nn(C)c(C)c1NC(=O)C(C)NS(=O)(=O)c1ccc(Cl)c(Cl)c1 (configuration not stated) returned NPYLR7 agonist -1 and NPYLR7 agonist max-min -2.
O=C(CC1CC2CCC1C2)NC12CC3CC(CC(C3)C1)C2 (configuration not stated) was read as NPYLR7 agonist -1 and NPYLR7 agonist max-min 14.
For CCNC(=O)[C@@H]1C[C@H](N)CN1C(=O)CCc1ccc(C)c(C)c1 the results were NPYLR7 agonist 5 and NPYLR7 agonist max-min 4.
Screening CCOC(=O)c1cc(-c2ccc(N3CCN(C(=O)c4ccc(F)c(F)c4)CC3)cc2)n(-c2ccccc2OC)n1 returned NPYLR7 agonist 17 and NPYLR7 agonist max-min 8.
For Cn1c(CNS(=O)(=O)c2ccc3c(c2)CC(=O)N3)nc2ccccc21 the results were NPYLR7 agonist 4 and NPYLR7 agonist max-min 2.
Screening CC(C)n1cc(Br)cc1C(=O)N1CCc2[nH]ncc2C1 returned NPYLR7 agonist 0 and NPYLR7 agonist max-min 6.
Screening CCc1nc2ccc(C(=O)N(CC)CCN(C)C)cn2c1N(C)Cc1ccc(Cl)cc1 returned NPYLR7 agonist -1 and NPYLR7 agonist max-min 38.
Screening Cc1ncoc1C(=O)N1CCCC(C(=O)c2ccc3c4c(cccc24)CC3)C1 (configuration not stated) returned NPYLR7 agonist 5 and NPYLR7 agonist max-min 3.
Screening Cc1nn(C)c(Cl)c1CN(C)S(=O)(=O)c1ccc(F)cc1 returned NPYLR7 agonist 9 and NPYLR7 agonist max-min 6.
`c1cncc(COC2CCN(Cc3ccc(-c4cccnc4)cc3)CC2)c1` gave NPYLR7 agonist -4 and NPYLR7 agonist max-min -4.
Cc1ccc(C(=O)Oc2c(CN3CCN(C)CC3)cc(Cl)c3cccnc23)cc1 was read as NPYLR7 agonist 1 and NPYLR7 agonist max-min -2.
Screening O=C(COc1ccc(Cl)cc1)NC1CCN(c2ccccc2C(=O)NCc2ccccc2F)CC1 returned NPYLR7 agonist -4 and NPYLR7 agonist max-min 3.
N#CC1C(=N)SC(=N)C(C#N)C1c1c(Cl)cccc1Cl (configuration not stated) was read as NPYLR7 agonist 0 and NPYLR7 agonist max-min -2.
`CCOc1ccc2cc(S(=O)(=O)NCc3ccco3)ccc2c1` gave NPYLR7 agonist 4 and NPYLR7 agonist max-min 3.
For O=C1C[C@H]2CC[C@@H](CN1)N2CCn1c(=O)oc2ccccc21 the results were NPYLR7 agonist 5 and NPYLR7 agonist max-min -4.
CN(C)C1(CNC(=O)c2cc(F)ccc2Br)CCCC1 was read as NPYLR7 agonist 0 and NPYLR7 agonist max-min -4.
CCN(CC)CCNC(=O)c1cc(NC(=O)c2ccccc2Br)ccc1N1CCCC1 was read as NPYLR7 agonist 8 and NPYLR7 agonist max-min 12.
Clc1ccc2nc(COc3ccccc3Br)cn2c1 was read as NPYLR7 agonist 7 and NPYLR7 agonist max-min 5.
`CC(C)(C)c1nnc(N2CCCC2)[nH]c1=O` gave NPYLR7 agonist 9 and NPYLR7 agonist max-min 5.
`Cc1cc(-n2c(C)cc(C(=O)Cn3cnc4sccc4c3=O)c2C)no1` gave NPYLR7 agonist -3 and NPYLR7 agonist max-min 10.
N#Cc1ccc(C=NNS(=O)(=O)c2ccc(Br)cc2)cc1 was read as NPYLR7 agonist 4 and NPYLR7 agonist max-min 2.
`Cc1ccc(C)c(OCC(=O)NC(C)c2n[nH]c(=O)[nH]2)c1C` (configuration not stated) gave NPYLR7 agonist 0 and NPYLR7 agonist max-min -2.
For CCc1cn[nH]c1C1CCN(C(=O)CNS(=O)(=O)c2cccs2)CC1 the results were NPYLR7 agonist -4 and NPYLR7 agonist max-min -7.
Screening COc1cccc(COC(CN2CCN(C(=O)Nc3ccccc3OC(F)F)CC2)c2ccc(Cl)cc2)c1 (configuration not stated) returned NPYLR7 agonist 8 and NPYLR7 agonist max-min 4.
For CCN(C(=O)c1ccc(N2C(=O)C3C4C=CC(C4)C3C2=O)cc1)c1ccccc1 (configuration not stated) the results were NPYLR7 agonist -6 and NPYLR7 agonist max-min -10.
`CCCc1ccccc1N1C(=O)CSC1c1ccc(NC(=O)c2cccs2)cc1` (configuration not stated) gave NPYLR7 agonist 4 and NPYLR7 agonist max-min 12.
CCN(Cc1nccn1Cc1cccc(C(F)(F)F)c1)C(=O)NC(C)C was read as NPYLR7 agonist 5 and NPYLR7 agonist max-min 8.
`O=C(NS(=O)(=O)CC1CCCCO1)c1cc(F)cc(F)c1` (configuration not stated) gave NPYLR7 agonist 6 and NPYLR7 agonist max-min 3.
For COc1cccc(CN2CCCC3(CCN(C(=O)c4oc(C)cc4C)C3)C2)c1 (configuration not stated) the results were NPYLR7 agonist 2 and NPYLR7 agonist max-min -1.
Screening COC(=O)N=Nc1c(O)[nH]c2ccccc12 returned NPYLR7 agonist 3 and NPYLR7 agonist max-min 10.
`COc1ccc(CC(=O)N2CCN(c3nc(Cc4ccccc4)nc4c3c(C)nn4-c3ccccc3)CC2)cc1` gave NPYLR7 agonist 5 and NPYLR7 agonist max-min 10.
Screening O=c1cc(CSc2ncc(-c3ccc(Cl)cc3)o2)nc2ccccn12 returned NPYLR7 agonist -1 and NPYLR7 agonist max-min 7.
For COc1ccc(NC(=O)c2nc(Cl)ccc2Cl)cc1OC1CCCC1 the results were NPYLR7 agonist 6 and NPYLR7 agonist max-min 3.
Screening Cn1cnnc1C1CCN(Cc2cc3n(n2)CCCNC3)CC1 returned NPYLR7 agonist 0 and NPYLR7 agonist max-min -2.
C=C(C)Cn1c2ccc(NC(=O)NCc3ccccc3)cc2c(=O)n1C was read as NPYLR7 agonist 7 and NPYLR7 agonist max-min 4.
For COc1cc2c(cc1OC)C(C(C)NC(=S)NC(C)C)N(Cc1ccc(F)cc1)CC2 (configuration not stated) the results were NPYLR7 agonist 24 and NPYLR7 agonist max-min 29.
O=C(Cn1cnc2c(cnn2C2CCS(=O)(=O)C2)c1=O)N1CCCc2ccccc21 (configuration not stated) was read as NPYLR7 agonist 12 and NPYLR7 agonist max-min 2.
CC(C(=O)N1CCC(O)(CO)CC1)c1ccc(-c2ccccc2)c(F)c1 (configuration not stated) was read as NPYLR7 agonist -2 and NPYLR7 agonist max-min -7.
For CCn1cc(CC(=O)NC(C#N)C2CCCCC2)c2ccccc21 (configuration not stated) the results were NPYLR7 agonist 2 and NPYLR7 agonist max-min -1.
`CCCCOCCOCC(=O)N1CCC(n2nc(C)cc2C)CC1` gave NPYLR7 agonist 3 and NPYLR7 agonist max-min 1.
`CCOCCCn1c(SCc2ccc(C(F)(F)F)cc2C(F)(F)F)nc2cc(S(=O)(=O)N3CCOCC3)ccc21` gave NPYLR7 agonist 16 and NPYLR7 agonist max-min 12.
Screening O=c1ccc(-c2cccnc2)nn1CCNS(=O)(=O)c1ccc(OC(F)(F)F)cc1 returned NPYLR7 agonist -3 and NPYLR7 agonist max-min -5.
COc1cccc(-c2[nH]ncc2C(=O)N2CCC3(CCCN(C)C3=O)C2)c1 (configuration not stated) was read as NPYLR7 agonist 22 and NPYLR7 agonist max-min 6.
O=C(c1ccc(Cn2nc3ccccn3c2=O)cc1)N1CCN(Cc2ccc(Cl)nc2)CC1 was read as NPYLR7 agonist 5 and NPYLR7 agonist max-min 4.

7 successive records out of the list so far, quoted:
For COc1ccc(NC(=O)c2nc(Cl)ccc2Cl)cc1OC1CCCC1 the results were NPYLR7 agonist 6 and NPYLR7 agonist max-min 3.
Screening Cn1cnnc1C1CCN(Cc2cc3n(n2)CCCNC3)CC1 returned NPYLR7 agonist 0 and NPYLR7 agonist max-min -2.
C=C(C)Cn1c2ccc(NC(=O)NCc3ccccc3)cc2c(=O)n1C was read as NPYLR7 agonist 7 and NPYLR7 agonist max-min 4.
For COc1cc2c(cc1OC)C(C(C)NC(=S)NC(C)C)N(Cc1ccc(F)cc1)CC2 (configuration not stated) the results were NPYLR7 agonist 24 and NPYLR7 agonist max-min 29.
O=C(Cn1cnc2c(cnn2C2CCS(=O)(=O)C2)c1=O)N1CCCc2ccccc21 (configuration not stated) was read as NPYLR7 agonist 12 and NPYLR7 agonist max-min 2.
CC(C(=O)N1CCC(O)(CO)CC1)c1ccc(-c2ccccc2)c(F)c1 (configuration not stated) was read as NPYLR7 agonist -2 and NPYLR7 agonist max-min -7.
For CCn1cc(CC(=O)NC(C#N)C2CCCCC2)c2ccccc21 (configuration not stated) the results were NPYLR7 agonist 2 and NPYLR7 agonist max-min -1.

Additional compounds
For O=C(NCCN1CCCCC1)c1cc(-c2ccc([N+](=O)[O-])cc2)nn1-c1ccc(Cl)cc1 the results were NPYLR7 agonist 20 and NPYLR7 agonist max-min 23.
Screening COc1ccc(-c2noc(-c3ccc(OC)cc3OC)n2)cc1 returned NPYLR7 agonist 1 and NPYLR7 agonist max-min -1.
For O=C(CSC1=NS(=O)(=O)c2ccccc2N1)NC1CCCCC1 the results were NPYLR7 agonist 11 and NPYLR7 agonist max-min 7.
`COCCOCC(=O)N1CCN(c2nc3nccc(-c4ccc(Cl)c(Cl)c4)n3n2)CC1` gave NPYLR7 agonist 4 and NPYLR7 agonist max-min 0.
CC(CCS(C)=O)NCc1csc(C(C)C)n1 (configuration not stated) was read as NPYLR7 agonist 0 and NPYLR7 agonist max-min -4.
CCc1nc2n(n1)C(=O)C(C(c1ccco1)N1CC(C)CC(C)C1)S2 (configuration not stated) was read as NPYLR7 agonist -6 and NPYLR7 agonist max-min -12.
For CCOC(=O)C1CCCN(C(=O)C2CCN(c3nc(Cc4ccc(C)cc4)ns3)CC2)C1 (configuration not stated) the results were NPYLR7 agonist 5 and NPYLR7 agonist max-min 3.
`COc1cc(-c2nc(Cn3ccnc3-c3ccccn3)c(C)o2)cc2c1OCO2` gave NPYLR7 agonist 0 and NPYLR7 agonist max-min -5.
For COc1ccccc1CCNC(=O)CN1CN(c2ccccc2)C2(CCN(C(=O)c3ccc(Br)cc3)CC2)C1=O the results were NPYLR7 agonist 8 and NPYLR7 agonist max-min 5.
Cc1nn(-c2ccccc2)c(Cl)c1CSc1nnc(N)s1 was read as NPYLR7 agonist 4 and NPYLR7 agonist max-min 1.
Screening CC(=O)Nc1ccc(CNC(=O)CN2CCC(CO)CC2)cc1 returned NPYLR7 agonist 0 and NPYLR7 agonist max-min -6.
Screening O=C1NCCCCC1NCc1cccc(-c2ccccc2)c1 (configuration not stated) returned NPYLR7 agonist -19 and NPYLR7 agonist max-min -21.
O=C(Cc1ccc(F)cc1)NNS(=O)(=O)c1cccc(Br)c1 was read as NPYLR7 agonist 0 and NPYLR7 agonist max-min 6.
For CSc1ncc(CN2CCCC(CCC(=O)NCc3ccc(F)c(F)c3)C2)cn1 (configuration not stated) the results were NPYLR7 agonist 11 and NPYLR7 agonist max-min 5.
Screening O=C(N1CCc2ccc(S(=O)(=O)NCCc3cn(Cc4ccccn4)c4ccccc34)cc2C1)C(F)(F)F returned NPYLR7 agonist -7 and NPYLR7 agonist max-min -12.
Screening CCCOc1cccc(C(=O)Nc2cccc(-c3nc4ccc(C)cc4o3)c2)c1 returned NPYLR7 agonist 10 and NPYLR7 agonist max-min 9.
Cc1nc2n(n1)C(=O)C(C(c1ccc(C(C)C)cc1)N1CC(C)OC(C)C1)S2 (configuration not stated) was read as NPYLR7 agonist 0 and NPYLR7 agonist max-min -4.
`Cc1cccc(C(=O)NC(C(=O)N2CCOCC2)C2CCN(C(=O)c3cccc(Br)c3)CC2)c1` (configuration not stated) gave NPYLR7 agonist -2 and NPYLR7 agonist max-min 5.
For CCCc1nc(N2CCN(C(=O)Nc3ccc(Cl)c(Cl)c3)CC2)c2c(-c3ccccc3)noc2n1 the results were NPYLR7 agonist 20 and NPYLR7 agonist max-min 5.
Screening CCCCc1ccc(C(=O)N2CCc3nc(Cc4ccccc4C(F)(F)F)[nH]c(=O)c3C2)cc1 returned NPYLR7 agonist 14 and NPYLR7 agonist max-min 13.
For Cc1nn(CC(C)NCCS(=O)(=O)N(C)C)c(C)c1Cl (configuration not stated) the results were NPYLR7 agonist 20 and NPYLR7 agonist max-min 14.
O=C(/C=C/c1ccco1)NCCC(=O)Nc1nncs1 was read as NPYLR7 agonist 3 and NPYLR7 agonist max-min 1.
`COc1ccc(CCN2COc3ccc4c(c3C2)O/C(=C\c2cccnc2)C4=O)cc1OC` gave NPYLR7 agonist 33 and NPYLR7 agonist max-min 30.
`CCOC(=O)C1CCCN(C(=O)c2ccc(CSc3nc(C)cc(N4CCOCC4)n3)o2)C1` (configuration not stated) gave NPYLR7 agonist 12 and NPYLR7 agonist max-min 12.
`C=CCN(CC(O)CN1CCOCC1)CC1CC(c2ccccc2)=NO1` (configuration not stated) gave NPYLR7 agonist -2 and NPYLR7 agonist max-min 4.
`Cc1nn(Cc2ccccc2)c(Cl)c1CN1CCC(C(N)=O)C1` (configuration not stated) gave NPYLR7 agonist 5 and NPYLR7 agonist max-min 4.
For CCCCc1ccc(C(=O)N2CCN(c3nc(C)nc(COC)c3Cc3ccc(OC)cc3)CC2)cc1 the results were NPYLR7 agonist 3 and NPYLR7 agonist max-min 13.
`Cc1cc(NC(=O)CSc2nnc(N3CCN(C(=O)c4cc(C)oc4C)CC3)s2)no1` gave NPYLR7 agonist 13 and NPYLR7 agonist max-min 14.
For CCOC=C(C#N)c1nc(C)cs1 the results were NPYLR7 agonist 84* and NPYLR7 agonist max-min 83*.

Screening results as filed in PubChem.
